Screening results (PubChem)
GLA inh pH 4.5 = inhibitors of human alpha-galactosidase A at pH 4.5 | purified enzyme, 4-MU-alpha-Gal fluorescence, pH 4.5 | activity change, negative = inhibition, % at 105 µM | 230,000 tested, under 10 active; inconclusive = small, poorly fitted or top-dose-only inhibition, or a rising curve; inactive = flat fitted curve, though single readings scatter; no compound was filed as active;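 further: 0% = full activity with enzyme and -100% = basal without enzyme; dose as in the result columns while the protocol names 77 µM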
Target sequence (P06280 whole entry, looked up): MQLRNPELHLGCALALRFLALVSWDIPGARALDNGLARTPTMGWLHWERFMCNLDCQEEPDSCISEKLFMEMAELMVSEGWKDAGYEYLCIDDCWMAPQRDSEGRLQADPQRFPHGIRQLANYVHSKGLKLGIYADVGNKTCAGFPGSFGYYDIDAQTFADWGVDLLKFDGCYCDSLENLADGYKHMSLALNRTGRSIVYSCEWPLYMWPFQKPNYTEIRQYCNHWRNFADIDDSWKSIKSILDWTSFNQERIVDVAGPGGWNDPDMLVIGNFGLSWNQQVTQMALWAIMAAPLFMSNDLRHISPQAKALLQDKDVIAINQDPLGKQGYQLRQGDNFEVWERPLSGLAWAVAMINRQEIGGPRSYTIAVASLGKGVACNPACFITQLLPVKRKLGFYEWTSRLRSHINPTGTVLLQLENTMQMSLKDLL
miR-21 reporter = miR-21 reporter, rising signal; HeLa miR-21 FLuc reporter, luciferase, 48 h; 340,000 tested, under 10 active; Potency, µM (doses to about 38.3 µM), without a hit: top-dose reporter change, positive = more light; active = well fitted rising curve with a large enough effect; inconclusive = small, poorly fitted or top-dose-only effect; inactive = no such curve, though single readings can be large or run the other way;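 further: % of control where 0% means no effect; miR-21 action dims this reporter so a rising signal means less miR-21 action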
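HeLa cells stably expressing CMV-driven firefly luciferase with a downstream miR-21 binding sequence, endogenously expressing miR-21, were treated with titrations (up to about 40uM final) for 48 hours at 37 degree Celsius. Luciferase luminescence was read after lysis.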
* hit, by the source's call; ? = inconclusive; / = not tested or not shown; & = joins results of further samples.

SMILES | GLA inh pH 4.5 | miR-21 reporter
CCCCCCCCCC(=O)O[C@H]1CC[C@H]2[C@@H]3CCC4=CC(=O)CC[C@@H]4[C@H]3CC[C@]12C | -2.4 | /
O=C1CCc2c(ccc3ccccc23)O1 | ? | /
C=C1C2CC[C@@]3(C)C(c4ccoc4)OC(=O)C[C@@]13OC1CC(=O)C(C)(C)C(C(OC(C)=O)C(=O)OC)[C@@]12C (stereo partly drawn) | -10.1 | /
COc1ccc(C[C@H]2NC[C@H](O)[C@@H]2OC(C)=O)cc1 | -9.8 | /
CC(=O)OCC1=C(C(=O)[O-])N2C(=O)[C@@H](NC(=O)CCC[C@@H](N)C(=O)[O-])[C@H]2SC1.[Zn+2] | -1.6 | /
NC1=N[C@H](O)[C@H]2C3O[C@]4(O)O[C@H](C(O)[C@@]2(N1)[C@@H]4O)C3(O)CO (stereo partly drawn) | -5.7 | /
O=C1/C(=C\c2ccccc2)C[C@@]2(O)[C@H]3Cc4ccc(O)c5c4[C@@]2(CCN3CC2CC2)[C@@H]1O5 | -9.5 | /
C[C@]12CCC3C(CC[C@]4(O)C[C@@H](O)CC[C@]34C=O)[C@@]1(O)CC[C@@H]2C1=CC(=O)OC1 (stereo partly drawn) | 4.1 | /
N#Cc1nn(-c2c(Cl)cc(C(F)(F)F)cc2Cl)c(N)c1S(=O)C(F)(F)F (stereo not drawn) | -19.2&-12.1 | /
COc1cc2c(cc1O)[C@H]1Cc3ccc(OC)c(O)c3CN1CC2 | 3.2 | /
CCCN1[C@@H]2C[C@@H](O)CC[C@@H]2C[C@H]1C(=O)OC | -7.0 | /
O=C(O)[C@@H]1CSC(c2cccnc2)N1 (stereo partly drawn) | -11.3 | /
C[C@@H](N)Cn1ccc2cc(F)c(Cl)cc21 | -2.8 | /
CCCN(CCC)[C@H]1CCc2c(F)ccc(O)c2C1 | -2.2 | /
N[C@@H](CCCCP(=O)(O)O)C(=O)O | 0.2 | /
CN(C(=O)Cc1ccccc1)[C@H](CN1CCCC1)c1ccccc1 | -4.1 | /
CCn1cnc2c(Nc3cccc(Cl)c3)nc(N[C@@H]3CCCC[C@@H]3N)nc21 | -7.5 | /
CC(C)=CCCC1(C)C=Cc2c(O)c3c(c(CC=C(C)C)c2O1)OC12C(=CC4CC1C(C)(C)OC2(C/C=C(/C)C(=O)O)C4O)C3=O (stereo not drawn) | -7.7 | /
CCC1C2CC3C4N(C)c5ccccc5[C@]45CC(C2C5O)N3C1O (stereo partly drawn) | -5.5 | /
CCN1C[C@]2(COC)CC[C@H](O)[C@@]34[C@@H]5C[C@H]6[C@@H](OC)[C@H]5[C@](O)(C[C@@H]6OC)[C@@](O)([C@@H](OC)[C@H]23)[C@@H]14 | 3.2 | /
NCCc1c[nH]c2ccc(O)cc12 | 1.8 | /
COC(=O)C1(C)C=C2C(=C(C)C(=O)C2C)CN1 (stereo not drawn) | 6.4 | /
C=C1[C@@H]2C[C@@]3([C@H]1O)[C@H]1C[C@@H]4[C@@]5(C)CC[C@H](O)[C@]4([C@H]1N(CC)C5)[C@H]3C[C@H]2O | -2.5 | /
CCN1C[C@@]2(COC)CC[C@H](O)[C@@]34[C@@H]2C[C@@H]([C@@H]13)[C@]1(O)C[C@@H](OC)C2C[C@H]4[C@H]1[C@H]2OC(C)=O | 5.8 | /
O=c1ccc2cc(O[C@H]3OC(CO)C(O)C(O)C3O)c(O)cc2o1 (stereo partly drawn) | ? | /
NC(=O)c1ccc(NC(=O)c2cccn(Cc3ccccc3)c2=O)cc1 | / | -4.5%
COc1ccc(C(=O)Nc2ccc(-c3nc4ccccc4s3)cc2C)cc1Cl | / | -39.6%
O=C(COc1ccccc1Cl)N1CCN(CCc2ccccn2)CC1 | / | -16.0%
CCCCC12CN3CC(C)(CN(C1)C3c1ccccn1)C2=O (stereo not drawn) | / | 0.0%
COc1ccc(N2CCN(C(=O)C3CCCN(S(=O)(=O)c4ccc5c(c4)CCCN5C(C)=O)C3)CC2)cc1 (stereo not drawn) | / | ?
O=C(Nc1nc2ccccc2s1)c1cccn(Cc2ccccc2)c1=O | / | -34.9%
COc1ccc(NC(=O)CCc2nc(C3=CCN(Cc4cccc(C)c4)CC3)no2)c(OC)c1 | / | 15.8%
O=C(c1ccc2c(c1)N(Cc1ccc(F)cc1)C(=O)c1ccccc1S2)N1CCC2(CC1)OCCO2 | / | 4.2%
Cc1ccc(-n2c(/C=C/c3ccccc3)nc3ccccc3c2=O)cc1Cl | / | 4.1%
Cc1ccccc1-n1nc(C)c2c1NC(=O)CSC2c1ccccc1C(F)(F)F (stereo not drawn) | / | -8.9%
COc1ccc(CCNCc2ccc3c(c2)n(C)c(=O)n3C)cc1 | / | -2.1%
COc1ccc(C2CC(=O)Oc3c2c(=O)oc2ccccc32)c(OC)c1OC (stereo not drawn) | / | -7.3%
Cc1cc(C)cc(OCC(=O)Nc2ccc(Cl)cc2C(=O)c2ccccc2)c1 | / | 0.5%
COc1ccc(NC(=O)CCc2nc(C3=CCN(Cc4cccc(Cl)c4)CC3)no2)c(OC)c1 | / | -6.6%
O=C(Nc1ccc(Br)cc1C(=O)c1ccccc1Cl)c1ccccc1F | / | -0.7%
Cc1ccc2nc(NC(=O)c3cccn(Cc4ccccc4F)c3=O)sc2c1 | / | -15.9%
Cc1cc(-c2ccc(C)c(S(=O)(=O)N3CCOc4ccc(Cl)cc43)c2)on1 | / | ?
CN1CCN(c2csc3ccc(F)cc3c2=O)CC1 | / | -6.3%
Cc1cccc(CN2C(=O)CN=C(c3ccccc3Cl)c3cc(Cl)ccc32)c1 | / | 12.4%
O=C(Nc1ccc2c(c1)OCO2)c1cccn(Cc2ccccc2)c1=O | / | -22.0%
Cc1ccc(NC(=O)CN2C(=O)CN=C(c3ccccc3)c3ccccc32)c(C)c1 | / | 2.7%
Cc1ccc(CN2C(=O)c3ccccc3Sc3ccc(C(=O)N4CCC5(CC4)OCCO5)cc32)cc1 | / | 5.1%
Cc1cccc(NC(=O)Cn2cc(C(=O)c3ccccc3)c3ccccc32)c1 | / | ?
Cc1oc(-c2ccc(Cl)cc2)nc1CN1C(=O)CN=C(c2ccccc2)c2ccccc21 | / | 15.7%
CCOc1ccc(C(NC(=O)c2cc(OC)c(OC)c(OC)c2)c2cc(Cl)c3cccnc3c2O)cc1 (stereo not drawn) | / | ?
CCc1cccc(NC(=O)CN2C(=O)CN=C(c3ccccc3F)c3cc(Cl)ccc32)c1 | / | 28.4%
Cc1ccc(-n2c(/C=C/c3cc(Br)cs3)nc3ccccc3c2=O)cc1 | / | -2.0%
Cc1ccc(NC(=O)N(Cc2ccc3c(c2)OCO3)C2CCN(Cc3ccccc3)CC2)cc1C | / | 13.7%
Cc1oc2ccc(O)c(CN3CCCCCC3)c2c1C(=O)Nc1cccc(Cl)c1C | / | ?
O=C(COc1cc(Cl)ccc1Cl)Nc1ccc(Cl)cc1C(=O)c1ccccc1 | / | -2.3%
Cc1ccccc1CN1C(=O)C(C)N=C(c2ccccc2)c2ccccc21 (stereo not drawn) | / | 12.2%
COc1ccc2oc(=O)c(C(=O)NCCc3c(C)[nH]c4ccc(F)cc34)cc2c1 | / | ?
O=c1c2ccccc2nc(/C=C/c2cccc3ccccc23)n1-c1ccccc1Cl | / | -4.9%
COc1ccc(C(=O)Nc2ccc(-c3nc4ccccc4s3)c(Cl)c2)cc1Cl | / | -32.6%
Cc1ccccc1-n1c(/C=C/c2c(C)[nH]c3ccccc23)nc2ccccc2c1=O | / | ?
The list goes on.
SMILES | GLA inh pH 4.5 | miR-21 reporter
Cc1ccc(-c2nn3c(=O)cc(CN4CCN(C(=O)COc5ccc(C)c(C)c5)CC4)nc3s2)cc1 | / | 0.2%
Cc1cccc(N(CC(=O)NCCSc2ccc(Cl)cc2)S(=O)(=O)c2ccccc2)c1C | / | ?
COc1ccc(NC(=O)c2sc3nc4c(cc3c2N)N2CCC4CC2)cc1OC | / | 20.8%
Cn1c(=O)n(C)c2cc(CNCCc3ccc(F)cc3)ccc21 | / | -1.3%
COc1ccc(OC)c(NC(=O)Cn2cc(C(=O)c3ccccc3F)c3ccccc32)c1 | / | 20.5%
Cc1cc(OCC(=O)N2CCN(CCc3ccccn3)CC2)cc(C)c1Cl | / | -13.2%
O=C1CC(c2ccc(F)cc2)c2c(c3ccccc3oc2=O)O1 (stereo not drawn) | / | -8.0%
CCc1ccc(OCC(=O)N2CCN(CCc3ccncc3)CC2)cc1 | / | -25.3%
COc1ccc(C)cc1NC(=O)c1cccn(Cc2cccc([N+](=O)[O-])c2)c1=O | / | -2.0%
Cc1cccc(-c2nn3c(=O)cc(CN4CCN(C(=O)COc5ccc(Cl)cc5)CC4)nc3s2)c1 | / | -7.2%
Cc1ccc(Cn2cccc(C(=O)Nc3cc(C)on3)c2=O)cc1 | / | -1.7%
CCOc1ccc(NC(=O)Cn2cc(C(=O)c3ccccc3)c3ccccc32)cc1 | / | 0.2%
O=C(Nc1cc(C(F)(F)F)cc(C(F)(F)F)c1)c1cccn(Cc2ccccc2Cl)c1=O | / | 0.3%
Cc1ccc(NC(=O)Nc2cc3c(cc2N2CCCCC2)n(C)c(=O)n3C)cc1Cl | / | ?
COc1ccc(OC)c(CCNCc2c(C(=O)O)c(C)n(Cc3ccc(F)cc3Cl)c2C)c1 | / | -2.1%

Another view of part of the listing above:
| mol | GLA inh pH 4.5 | miR-21 reporter |
| --- | --- | --- |
| COc1ccc2oc(=O)c(C(=O)NCCc3c(C)[nH]c4ccc(F)cc34)cc2c1 | / | ? |
| O=c1c2ccccc2nc(/C=C/c2cccc3ccccc23)n1-c1ccccc1Cl | / | -4.9% |
| COc1ccc(C(=O)Nc2ccc(-c3nc4ccccc4s3)c(Cl)c2)cc1Cl | / | -32.6% |
| Cc1ccccc1-n1c(/C=C/c2c(C)[nH]c3ccccc23)nc2ccccc2c1=O | / | ? |
| Cc1ccc(-c2nn3c(=O)cc(CN4CCN(C(=O)COc5ccc(C)c(C)c5)CC4)nc3s2)cc1 | / | 0.2% |
| Cc1cccc(N(CC(=O)NCCSc2ccc(Cl)cc2)S(=O)(=O)c2ccccc2)c1C | / | ? |
| COc1ccc(NC(=O)c2sc3nc4c(cc3c2N)N2CCC4CC2)cc1OC | / | 20.8% |
| Cn1c(=O)n(C)c2cc(CNCCc3ccc(F)cc3)ccc21 | / | -1.3% |
| COc1ccc(OC)c(NC(=O)Cn2cc(C(=O)c3ccccc3F)c3ccccc32)c1 | / | 20.5% |
| Cc1cc(OCC(=O)N2CCN(CCc3ccccn3)CC2)cc(C)c1Cl | / | -13.2% |
| O=C1CC(c2ccc(F)cc2)c2c(c3ccccc3oc2=O)O1 (stereo not drawn) | / | -8.0% |
| CCc1ccc(OCC(=O)N2CCN(CCc3ccncc3)CC2)cc1 | / | -25.3% |
| COc1ccc(C)cc1NC(=O)c1cccn(Cc2cccc([N+](=O)[O-])c2)c1=O | / | -2.0% |

Remaining list, next part.
SMILES | GLA inh pH 4.5 | miR-21 reporter
CCOc1ccc(CN(CCc2ccc3c(c2)OCO3)Cc2cc(OC)ccc2O)cc1 | / | 7.8%
Cc1nnc(NC(=O)c2cccn(Cc3cccc(Cl)c3)c2=O)s1 | / | 0.2%
Cc1ccc(-n2nc(C)c3c2NC(=O)CSC3c2ccc(O)cc2)cc1Cl (stereo not drawn) | / | -1.3%
CCc1ccc(NC(=O)CN2C(=O)C3(SCC(=O)N3c3ccc(F)c(F)c3)c3ccccc32)cc1 (stereo not drawn) | / | ?
O=S1(=O)N(Cc2ccccc2)CCCN1Cc1cccc(Cl)c1 | / | 3.8%
Cc1ccc(OCC(=O)N2CCN(CCc3ccncc3)CC2)cc1 | / | -14.4%
COc1cccc(NC(=O)C2CCN(S(=O)(=O)c3cc(-c4noc(C)n4)ccc3C)CC2)c1 | / | ?
Cc1ccc(CNc2cc(C)nc3nc(-c4ccc(C)cc4)nn23)cc1 | / | -38.8%
CCCCOc1ccc(C(=O)N2CC(=O)Nc3ccc(Br)cc3C2c2ccc(F)cc2)cc1 (stereo not drawn) | / | ?
Cc1ccccc1-n1c(/C=C/c2ccccc2F)nc2ccccc2c1=O | / | 5.2%
Cc1cccc(Cn2cccc(C(=O)Nc3ccc4c(c3)OCCO4)c2=O)c1 | / | 1.5%
O=C(Nc1nc2c(Cl)cccc2s1)c1ccc(S(=O)(=O)N2CCc3ccccc32)cc1 | / | ?
Cc1cccc(Cn2cccc(C(=O)Nc3nnc(C)s3)c2=O)c1 | / | -10.9%
COc1ccc(NC(=O)CN2C(=O)C(C)N=C(c3ccccc3F)c3cc(Cl)ccc32)c(OC)c1 (stereo not drawn) | / | 3.6%
CN1C(=O)c2ccccc2Sc2ccc(NC(=O)NCc3ccc(Cl)cc3)cc21 | / | ?
O=C(COc1ccc(Cl)cc1)Nc1ccc(Cl)cc1C(=O)c1ccccc1 | / | 1.5%
N#Cc1cc2c(nc1SCC(=O)Nc1ccc(C(F)(F)F)cc1)C1CCN2CC1 | / | ?
CCC(C)C(NC(=O)CCCNC(=O)CCC(=O)OC1O[C@H]2OC3(C)CC[C@H]4[C@H](C)CCC(C1C)C24OO3)C(=O)O (stereo partly drawn) | / | ?

Not all compounds are listed, so the mix of outcomes need not match the whole.
